HPGD inh = HPGD (human) dehydrogenase inhibition; P15428; purified HPGD, NADH fluorescence kinetic, PGE2 substrate; Potency, µM, for inactives: at the highest dose activity change, negative = inhibition, hits mostly inhibitors; 150,000 compounds, 4.3% hits; active = well fitted inhibition curve with a large enough effect (not every such curve was filed as active); inconclusive = small, poorly fitted or top-dose-only effect, or another doubt; inactive = no such curve, though single readings can be large or run the other way;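 also: top concentration of the series not given in the record; plate controls included wells without enzyme; inactives centre near -10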
Target sequence (P15428 whole entry, looked up): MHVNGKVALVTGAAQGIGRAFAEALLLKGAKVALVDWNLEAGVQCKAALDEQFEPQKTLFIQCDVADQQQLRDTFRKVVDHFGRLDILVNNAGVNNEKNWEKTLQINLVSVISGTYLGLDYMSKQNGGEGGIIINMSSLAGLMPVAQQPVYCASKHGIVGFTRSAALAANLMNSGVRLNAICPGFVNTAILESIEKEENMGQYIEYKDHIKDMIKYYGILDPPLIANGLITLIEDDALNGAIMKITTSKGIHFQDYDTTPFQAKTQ
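NADH formation kinetics: reaction with 30 uM PGE2 and 1 mM NAD+ (final), 20 nM enzyme, Tris-HCl pH 8 with Tween 20, after 15 min compound preincubation at room temperature. Fluorescence change, last versus first of five reads.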
An asterisk follows results filed as active; u = inconclusive; & = joins results of further samples. % is scaled to controls: 0 for no effect and ±100 for the full control effect; potency is read from the fitted curve at half-maximal effect.

SMILES	HPGD inh
CC1=CC(C)(C)N(C(=O)C(C)N2C(=O)c3ccccc3C2=O)c2ccc(C)cc21 (configuration not stated)	-10%
O=C(N/N=C/c1ccc([N+](=O)[O-])s1)c1ccccc1Br	-21%
COc1ccc(C(=O)C[n+]2ccc3c(c2)nc(-c2cc(OC)c(OC)cc2OC)n3C)cc1	-12%
O=C(NCCN1CCCCC1)Nc1ccccc1	-6%
COc1ccc(NS(=O)(=O)c2ccc(NS(=O)(=O)c3ccc(C)cc3)cc2)nn1	-12%
CCN(CC)S(=O)(=O)c1cccc(NC(=O)c2cc(=O)[nH]c3ccccc23)c1	-4%
CC1=CC(C)(C)Nc2ccc(OC(=O)CN3C(=O)C4CCCCC4C3=O)cc21 (configuration not stated)	-28%
CCN(CC)CCCn1c(-c2ccccc2)nc2c(NCCOC)nc(C)nc21	u
CN(C)CCCN1c2ccccc2C(C)(C)c2ccccc21	-7%
Cc1noc(/C=C/N(C)C)c1S(=O)(=O)N(C)CC(=O)NC1CCCCC1	-25%
c1ccc2oc(-c3ccc(Nc4nc(N5CCCCC5)nc(N5CCOCC5)n4)cc3)nc2c1	u
CCOC(=O)COc1nc(Nc2ccccc2C)nc(N(C)C)n1	-6%
COc1ccc(C)cc1NC(=O)c1ccc(CN2CCN(c3ccccc3)CC2)cc1	u
CCOC(=O)c1ccc(-c2nnc(-c3ccc(Cl)cc3Cl)o2)cc1	-16%
CCCn1c(CCc2ccccc2)nnc1SCC(=O)N1CCCC1	-1%
COC(=O)C1CCN(C(=O)/C=C/c2ccc(OC)cc2)CC1	-20%
COc1ccc(/C=C/C(=O)c2ccc(O)cc2O)cc1OC	14µM*
COc1cccc(NC(=O)CNS(=O)(=O)c2ccc3nc(C)sc3c2)c1	-1%
O=C(c1ccc(CN2CCc3ccccc3C2)cc1)N1CCCCC1	2.5µM*
Cc1cc(Nc2ccccc2)n(C(=O)c2ccc(Cl)cc2)n1	-22%

Reprinted from the entries so far for reference:
SMILES	HPGD inh
CCCn1c(CCc2ccccc2)nnc1SCC(=O)N1CCCC1	-1%
COC(=O)C1CCN(C(=O)/C=C/c2ccc(OC)cc2)CC1	-20%
COc1ccc(/C=C/C(=O)c2ccc(O)cc2O)cc1OC	14µM*
COc1cccc(NC(=O)CNS(=O)(=O)c2ccc3nc(C)sc3c2)c1	-1%
O=C(c1ccc(CN2CCc3ccccc3C2)cc1)N1CCCCC1	2.5µM*
Cc1cc(Nc2ccccc2)n(C(=O)c2ccc(Cl)cc2)n1	-22%

Other structures follow.
SMILES	HPGD inh
COc1ccc(C(=O)Nc2cc3c(cc2C#N)OCO3)cc1S(=O)(=O)NCc1ccco1	-7%
COc1ccc(C2CN=NC23CCCc2ccccc2C3=O)cc1 (configuration not stated)	-1%
O=C(NCc1cccs1)c1cc2ccccc2o1	-28%
CC(=O)c1cc(-c2ccccc2)n(CC(=O)Nc2cc(C)cc(C)c2)c1C	-8%
Cc1ccccc1OCC(=O)Nc1cccc2nsnc12	u
COc1ccc(C2=Nn3c(nnc3-c3ccncc3)SC2)cc1	-19%
CCOC(=O)c1c(C)n(C)c2ccc(OC)c(NC(=O)CN3CCN(Cc4ccccc4)CC3)c12	4%
COCCCNS(=O)(=O)c1ccc2c(c1)CCN2C(C)=O	-22%
O=C(CSc1nc2c(c(=O)[nH]1)CCCC2)Nc1ccc(Cl)cc1F	u
Cc1ccc(-c2nnc(Nc3ccc4c(c3)nc(C)n4C)c3ccccc23)cc1	u
COc1ccc(CCNC(=O)C2CCCN2C(=O)NC2CCCCC2)cc1OC (configuration not stated)	-7%
O=C(Nc1ccccc1)N1CCC(=S)Nc2ccccc21	-4%
COC(=O)C1CSC(C(=O)OC)N1C(=O)CN1CC(C)OC(C)C1 (configuration not stated)	-9%
Cc1csc(Sc2ccc([N+](=O)[O-])cc2C(=O)OCC(=O)NC(=O)NC(C)(C)C)n1	-19%
Cc1c(/C(O)=C2/C(=O)C(=O)N(CCN3CCOCC3)C2c2cccnc2)cnn1-c1ccccc1 (configuration not stated)	-9%
Cc1nnc(SCc2ccccc2Cl)n1CC1CCCO1 (configuration not stated)	-10%
O=C(c1cccc(F)c1)N1CCN(Cc2c[nH]c3ccccc23)CC1	-6%
CC(C)(Oc1ccc(CCNC(=O)c2ccc(-c3ccccc3)o2)cc1)C(=O)O	-14%
Cc1ccc2c(c1C)NC(=O)C2(O)CC(=O)c1ccc2c(c1)OCO2 (configuration not stated)	1%
Nc1nc(-c2ccccc2)nc2sc3c(c12)CCCC3	u
O=C(O)CCN=C1CCCc2ccccc2N1	-13%
CC12CCC(C(=O)NCc3ccccc3)(OC1=O)C2(C)C (configuration not stated)	-13%
COc1ccc(C(=O)COC(=O)c2ccc(OC)c(OC)c2)cc1OC	-21%
Nc1cccc(Nc2nc(OC(C(F)(F)F)C(F)(F)F)nc(OC(C(F)(F)F)C(F)(F)F)n2)c1	-27%
O=C(C1CCN(S(=O)(=O)N2CCC3(CC2)OCCO3)CC1)N1CCN(Cc2ccccc2)CC1	-3%
CCCCOC(=O)c1cc(C)nc2ccc(Br)cc12	-5%
Cc1cc(C)cc(NC(=O)OCCN2CCN(Cc3ccccc3)CCC2=O)c1	-7%&-7%
CC1=C(C(=O)N2CCCCC2)C(c2cccs2)C2=C(CCCC2=O)N1 (configuration not stated)	u
Cc1cc2cc3c(cc2nc1SCC(=O)OC(C)C)OCCO3	u
O=C(Nc1ccccc1C(=O)Nc1ccc2c(c1)OCO2)c1cccs1	-11%
CC(=O)Oc1ccc2c(c1)CCC1C2CC[C@@]2(C)C1CC(OC(C)=O)C2OC(C)=O (some centres not stated)	-13%
CCCc1nn2c(N)c(/C=C3\C=Nc4ccccc43)c(=O)nc2s1	-10%
CCCC[C@@H]1C[C@H]1C(NC(=O)c1ccco1)c1ccccc1 (some centres not stated)	-13%
CCCCc1ccc(-c2c(C#N)c(N)nc3c2CCCC3)s1	-10%
CCOC(=O)c1ccc(NC(=O)C2=C(C)Nc3nc(CCCO)nn3C2c2cccc(C)c2)cc1 (configuration not stated)	-3%
N#C/C(=C\Nc1ccc2c(c1)OCCO2)c1nc(-c2ccccc2)cs1	-5%
Cc1onc(-c2ccccc2)c1C(=O)Nc1ccon1	-3%
CCn1c(=O)[nH]c2cc(Cl)c(Cl)cc21	-12%&-26%
CCOC(=O)c1c(Cc2cccc(Cl)c2)c[nH]c1C	-14%
CCCCC(=O)Nc1ccc(C(=O)N2CCN(c3ccccc3OC)CC2)cc1	-1%
CCCn1nnnc1NCc1ccc(N2CCCC2)cc1	-5%
CCOC(=O)C1CCN(C(c2ccc(OC)c(OC)c2)c2sc3nc(C)nn3c2O)CC1 (configuration not stated)	-14%
CN(CC(=O)Nc1nc2ccccc2s1)S(=O)(=O)c1ccc(Br)cc1	-18%
COc1ccc(CNc2nc3nc(C)cc(C)n3n2)cc1OC	-9%
CC(=O)Nc1ccc(NC(=O)C2CC(=O)N=C(N)S2)cc1 (configuration not stated)	-8%
O=C(CSc1nnc(Cc2cccs2)n1C1CCCCC1)N1CCN(C(=O)c2ccco2)CC1	-5%
C=CCOC(=O)C1=C(C)NC(=O)NC1c1ccc(OC(=O)c2ccco2)c(OC)c1 (configuration not stated)	-5%
COc1cc2c(cc1OC)C(c1cccc(OC)c1OC)CC(=O)N2 (configuration not stated)	-14%
CC12CCC(C(=O)N3CCCc4ccccc43)(OC1=O)C2(C)C (configuration not stated)	-3%
CCOc1ccc(NC(=O)N(CCC(C)C)C(C)c2ccco2)cc1 (configuration not stated)	-25%
CCN(CC)CC(=O)N(CC(=O)Nc1c(C)cc(C)cc1C)C1CCCCC1	-10%
CCN(Cc1ccccc1)Cc1cc(OC)cc(OC)c1	-11%
Cc1cccc(C)c1NC(=O)CSCc1cccc(CSCC(=O)Nc2c(C)cccc2C)n1	-11%
COc1ccc(-n2cnc3cc(N)ccc32)cc1	1%
CCOC(=O)c1c(N)sc2c1CCS(=O)(=O)C2	40µM*
COc1ccc2nc(C)cc(N3CC(C)OC(C)C3)c2c1 (configuration not stated)	-16%
COc1cccc(NC(=O)CSC2=C(C#N)C(c3ccco3)C3=C(CCCC3=O)N2)c1 (configuration not stated)	-11%
N#Cc1cnn2c(-c3ccccc3)ccnc12	u
Cc1nc(CC(=O)N2CCN(c3cccc(C)c3C)CC2)cs1	-14%
C=CCNc1sc(C(=O)c2ccc(C)cc2)c(N)c1C#N	9%
More entries
SMILES	HPGD inh
CCCCCCCCCCCCCCCC(=O)NC(C)C	-3%
O=C(Nc1cccnc1)c1ccco1	-14%
CCCOc1ccc(-c2nc(OC)c3ccccc3n2)cc1	u
COc1ccc(OC)c2sc(NC(=O)c3ccc(Br)s3)nc12	-12%
CCn1nc(C(=O)OCC(=O)c2cc(C)n(Cc3cccs3)c2C)c2ccccc2c1=O	u
COc1ccccc1NC(=O)C1=C(C)Nc2nnnn2C1c1ccccn1 (configuration not stated)	-3%
O=C(O)c1ccc(Sc2nnc(-c3cccc(Br)c3)o2)c([N+](=O)[O-])c1	14µM*
Cc1ccccc1Nc1nc(N)nc(COC(=O)c2cccc(S(=O)(=O)N(C)C)c2)n1	-8%
COc1cc2c(cc1OC)C(=S)NC(C)(C)C2	-12%
CSc1nnc(-c2ccccc2)n1C	-15%
CCOC(=O)c1cnc2ccc(C)cc2c1OCc1cc(F)cc(F)c1	-21%
CCOC(=O)c1cn(-c2ccccc2CO)c2c(F)c(F)c(F)cc2c1=O	0%
CCOc1ccc(C2Oc3nc(SC)nnc3-c3ccccc3N2C(C)=O)cc1OC (configuration not stated)	-13%
Cc1ccc(N2C(=O)CC2(C#N)c2ccc(OCc3ccccc3)cc2)cc1 (configuration not stated)	-9%
CCOC(=O)N1CCN(C(=O)c2ccc(C)c(S(=O)(=O)Nc3cccc(C)c3C)c2)CC1	-9%
NC(=O)c1ccc(-c2ccc(Br)cc2)o1	u
C=CCOc1c2ccc(C(=O)NCCc3ccc(C)cc3)cc2nn1C	u
Cc1noc(C)c1-c1cc(NC2CC2)ncn1	-3%
N#CC1=C2N=C(N)c3c(sc4c3CCCCC4)N2C2=C(C(=O)CCC2)C1c1ccccc1 (configuration not stated)	-10%
CN1CCN(C(=O)/C(=C\c2cccs2)NC(=O)c2ccco2)CC1	0%

Structural class: the compounds so far containing a nitro group on carbon
SMILES	HPGD inh
O=C(N/N=C/c1ccc([N+](=O)[O-])s1)c1ccccc1Br	-21%
Cc1csc(Sc2ccc([N+](=O)[O-])cc2C(=O)OCC(=O)NC(=O)NC(C)(C)C)n1	-19%
O=C(O)c1ccc(Sc2nnc(-c3cccc(Br)c3)o2)c([N+](=O)[O-])c1	14µM*

Other structures.
SMILES	HPGD inh
CCCCC(CCCC)=N/N=C/c1c(O)n(CC)c2cc(C3=NNC(=O)CC3)ccc12	-24%
CC(=O)Nc1nc(-c2ccc(Cl)cc2)nc(C)c1C(C)=O	-13%
Cc1ccnc(NS(=O)(=O)c2ccc(NS(=O)(=O)c3ccccc3)cc2)n1	-10%
O=S(=O)(c1cccc2nsnc12)N1CCCC1	-9%
COc1ccc2c(=O)c3c(=O)n(Cc4ccco4)c(-c4ccco4)nc3oc2c1	22µM*
C=CCN(CC=C)S(=O)(=O)c1ncn[nH]1	-6%
CC1=NN(C(=O)c2ccc(C)cc2)C(O)(C(F)(F)OC(F)(F)F)C1 (configuration not stated)	-6%
NC(=O)CSc1nnc(-c2cccs2)n1-c1ccccc1	-2%
CCOC(=O)c1c(C)[nH]c(C)c1C(=O)CSc1nc2ccccc2c(=O)n1-c1ccc(CC)cc1	-7%
CC(=O)Nc1ccc(NC(=O)C(C)OC(=O)C2CC3C=CC2C3)cc1 (configuration not stated)	-7%
C/C(=N\NC(=O)c1c[nH]c2ccccc12)c1ccco1	-29%
Nc1ccc2c(C(F)(F)F)cc(=O)oc2c1	u
CC1CCCCC1NC(=O)C1CCN(S(=O)(=O)N2CCOCC2)CC1 (configuration not stated)	-4%
CCOC(=O)N1CCN(Cc2nc3c(c(=O)n(C)c(=O)n3C)n2Cc2cc(C)ccc2C)CC1	-4%
C=CCNC(=O)C1CCN(S(=O)(=O)c2ccccc2)CC1	-1%
CC(=C/c1ccccc1)/C=N/n1c(-c2ccco2)n[nH]c1=S	5µM*
Cc1cc(C)cc(NC(=O)C(NCC2CCCO2)c2ccccc2)c1 (configuration not stated)	-3%
Cc1cc(NC(=O)COC(=O)C2CCN(S(=O)(=O)c3ccc(Cl)cc3)CC2)no1	-9%
CCS(=O)(=O)N1CCN(c2ccc(C(=O)NC34CC5CC(CC(C5)C3)C4)cc2[N+](=O)[O-])CC1	-8%
Cc1ccc(N(CC(=O)Nc2ccccc2-c2ccccc2)S(=O)(=O)c2ccccc2)c(C)c1	-16%
COc1ccc2c(c1)c(CC(=O)N1CCOCC1)c(C)n2C(=O)c1ccc(Cl)cc1	-20%&-12%&-8%
CCN(CC)c1ccc(C(=O)OCC(=O)Nc2ccccc2-c2ccccc2)cc1	u
Cc1cc(C)nc(SCC(=O)NCc2ccco2)n1	-15%
O=C(CSc1nnc(Nc2ccccc2)s1)NCCN1C(=O)CSC1=O	-5%
CS(=O)(=O)Nc1ccccc1C(=O)N1CCN(c2ccccc2)CC1	0%
Cc1nn(Cc2ccccc2Cl)c(C)c1C(=O)N1CCN(c2ccccc2)CC1	-1%
O=C(Nc1cccc(C(=O)N2CCCCCC2)c1)c1ccco1	25µM*
COc1cc2ccccc2cc1C(=O)Nc1ccc(S(=O)(=O)Nc2cc(C)on2)cc1	20µM*
CN=c1sc(C(=O)Nc2cccc(Cl)c2)cc(=O)n1C	-17%
c1ccc2ncc(-n3cnnn3)cc2c1	2%

As entered above:
`CN=c1sc(C(=O)Nc2cccc(Cl)c2)cc(=O)n1C` | HPGD inh = -17%
`CC1=CC(C)(C)Nc2ccc(OC(=O)CN3C(=O)C4CCCCC4C3=O)cc21` (configuration not stated) | HPGD inh = -28%

Not all compounds are listed; the hit share may differ from the screen's.
